# RGS16-Gao HTS = modulators of RGS16 binding to Galphao, primary screen, biochemical, human proteins, multiplexed bead flow cytometry. bead-based flow cytometry RGS16-Galphao binding, fluorescence; actives lie on both sides. binding response (% of control), % at 10 µM. 220,000 tested, 0.38% active. AID 1441, 2008;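 active = below 25% or above 175%, edge rows of some plates excepted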;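 note: Galphao activated by GDP with aluminum fluoride before binding; 100% = wells without compound and 0% = beads without RGS; some results beyond the cut were filed as inactive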
# HSV replic up = enhancers of HSV replication in host cells, fold increase, host cell viability | 220,000 tested, 0.005% active | maximum fold increase | AID 1956, 2009 | HSV replication augmentation in cells;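 active = peak rise of 1.5-fold or more in the series; inconclusive = self-fluorescent or not available for retest; tested in PC3 cells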;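 note: first round at 10 µM; read as green reporter fluorescence; hits show the peak of a series up to 25 µM; 1 = signal of infected wells without compound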
# PKD1 inh = inhibitors of human PKD1 kinase, biochemical, fluorescence polarization; Serine/threonine-protein kinase D1 (Homo sapiens), Q15139; PKD1 kinase fluorescence polarization assay; inhibition, %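 (about 10 µM by stock and volumes)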; 200,000 tested, 0.056% active; AID 797, 2007;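 active = inhibition of 50% or more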;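 note: controls were vehicle for no effect and a reference inhibitor for full effect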
# Target sequence (Q15139 whole entry, looked up): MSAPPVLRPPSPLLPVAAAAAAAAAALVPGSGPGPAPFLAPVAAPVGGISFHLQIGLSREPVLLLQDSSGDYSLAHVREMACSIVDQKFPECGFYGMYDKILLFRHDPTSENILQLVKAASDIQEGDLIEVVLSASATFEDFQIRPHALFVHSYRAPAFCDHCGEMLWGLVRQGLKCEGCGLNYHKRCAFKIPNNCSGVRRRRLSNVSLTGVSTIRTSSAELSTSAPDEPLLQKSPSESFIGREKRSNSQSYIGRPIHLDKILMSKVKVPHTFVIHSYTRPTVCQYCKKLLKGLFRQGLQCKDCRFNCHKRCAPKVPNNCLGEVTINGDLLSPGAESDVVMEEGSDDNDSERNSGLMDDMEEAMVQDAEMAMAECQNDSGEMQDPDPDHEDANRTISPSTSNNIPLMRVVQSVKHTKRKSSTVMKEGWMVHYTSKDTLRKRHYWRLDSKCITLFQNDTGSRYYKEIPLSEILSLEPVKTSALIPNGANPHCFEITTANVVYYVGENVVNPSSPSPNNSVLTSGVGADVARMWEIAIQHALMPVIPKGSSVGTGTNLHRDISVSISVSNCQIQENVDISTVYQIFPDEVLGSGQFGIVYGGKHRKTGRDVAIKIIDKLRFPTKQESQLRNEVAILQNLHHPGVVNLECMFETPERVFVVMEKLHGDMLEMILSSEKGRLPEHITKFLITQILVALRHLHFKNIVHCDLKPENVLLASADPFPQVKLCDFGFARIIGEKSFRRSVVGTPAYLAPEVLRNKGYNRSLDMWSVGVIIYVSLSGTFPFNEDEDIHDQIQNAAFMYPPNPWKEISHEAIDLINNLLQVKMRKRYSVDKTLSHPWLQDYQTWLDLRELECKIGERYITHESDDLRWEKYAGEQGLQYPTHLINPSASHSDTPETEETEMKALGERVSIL
# GALR2 ag = GALR2 receptor agonists, primary screen, cell-based; Galanin receptor type 2 (Homo sapiens), O43603; GALR2-expressing cells, agonist activation read-out; activation, %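 (tested at 5 µM)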; 140,000 tested, 0.48% active; AID 803, 2007;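 active = above mean plus 3 SD of all compounds, about 5% in these data, not always enough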;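 note: 0% = vehicle buffer wells and 100% = reference agonist at full effect; tested in CHO reporter cells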
# Insulin prom inh = inhibitors of insulin promoter-driven GFP, primary screen, imaging, TRM-6 cells (human fetal islet line), eGFP reporter, cell count; 130,000 tested, 0.9% active; inhibition, % at 2 µM; AID 1273, 2008; reporter expression induced with tamoxifen;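 active = inhibition above the mean plus 3 SD, with well images judged a real hit on visual review, cut at about 60% in these data, passing the limit was not always enough; inconclusive = inhibition over the cutoff but images rejected on review; inactive = inhibition not above the cutoff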
# Insulin prom inh cell count = second read-out of Insulin prom inh, no call of its own (marks repeat the call); normalized cell count, %; measured here: cell count, toxicity; reference of the scale not given here;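 cells exposed to compound for 48 h; stained nuclei by imaging scaled within each plate; lower means fewer cells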
# HSV replic up primary fold = second read-out of HSV replic up, no call of its own (marks repeat the call); fold increase; compound at 10 µM; measured here: primary screen fold increase 10 uM; tested in PC3 cells;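 GFP signal in the first replicate; 1 = infected wells without compound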
# * hit, by the source's call; i = inactive; ? = inconclusive; . = no result given. An unsorted share of the library, and some 1.3% of all compounds hit somewhere here.
SMILES,RGS16-Gao HTS,HSV replic up,HSV replic up primary fold,PKD1 inh,GALR2 ag,Insulin prom inh,Insulin prom inh cell count
CC1(C)CC(=O)C2=C(C1)N1C(=C(C#N)C2c2ccc(Cl)cc2)N=C(N)c2ccccc21 (configuration not stated),102,.,.,-11,-1.7,17,94
Cc1ccc(NC(=O)N(C2=NCC(C)S2)c2ccccc2)cc1 (configuration not stated),.,i,0.78,-5,-1.6,40,125
N#CC(C(=O)c1ccccc1Cl)=C1SCCCS1,97,i,0.98,.,.,.,.
Cc1cccc(/C=N/NC(=O)NC2CCCCC2)c1,105,i,0.94,-5,0.3,-22,97
Cc1cc(C)n2nc(S(=O)(=O)NCCc3ccccc3)nc2n1,102,i,1.5,-14,-2.2,.,.
O=C(Cn1nnc2ccccc21)N/N=C\c1cccs1,104,i,1.1,3,-0.4,.,.
COc1cc2[nH]c(=S)n(NC(=O)c3ccccc3)c(=O)c2cc1OC,105,i,0.89,-1,-0.7,-32,83
COc1ccc(S(=O)(=O)Nc2ccc3c(c2)OCCO3)cc1Cl,121,i,0.95,-4,-1.1,29,85
Cc1ccc(Nc2nnc(SCC(=O)N(C)C3CCS(=O)(=O)C3)s2)cc1 (configuration not stated),101,i,1.1,6,.,33,119
CCc1c(C#N)c(N)nc(SCC(=O)OCc2ccccc2)c1C#N,104,i,0.78,-13,-0.5,.,.
O=C(NCCN=C1NS(=O)(=O)c2ccccc21)c1ccco1,73,i,0.97,-17,-2.9,.,.
CC(=O)C1=C(O)C(=O)N(Cc2ccco2)C1c1ccc(F)cc1 (configuration not stated),129,i,0.99,-6,-1.9,50,106
Cn1c(=O)c2ncn(CC(=O)Nc3ccc4c5c(cccc35)CC4)c2n(C)c1=O,91,i,1.2,2,-0.5,-119,77
Cc1c(C(=O)OC/C(O)=C(\C#N)c2nc3ccccc3[nH]2)oc2ccccc12,103,i,1.1,.,.,.,.
O=C(O)CCCN1C(=O)/C(=C\c2ccc(-c3nc4ccccc4s3)o2)SC1=S,100,?,.,.,.,.,.
CCN(CC)S(=O)(=O)c1ccc(C(=O)Nc2cc3oc4ccccc4c3cc2OC)cc1,114,i,0.79,-2,-0.3,-8,131
C/C(CC(=O)Nc1ccccc1C)=N\NC(=O)Cc1csc(N)n1,106,i,0.96,-5,0.6,-9,172
CN(C)c1ccnc(Oc2ccc(F)cc2)c1C#N,103,i,1,15,-1.8,-71,103
CN(c1ccc(F)cc1)S(=O)(=O)c1ccc(Cl)c(C(=O)Nc2ccc3c(c2)CCC3)c1,106,i,0.92,11,-1.1,22,123
COC(=O)C1=C(CN2CCCc3ccccc32)NC(=O)NC1c1ccc(F)cc1 (configuration not stated),106,i,0.97,-10,-0.9,-30,108
COc1cc(/C=C2\SC(=S)N(c3cccnc3)C2=O)ccc1O,92,2.8*,7.2*,.,.,.,.
COc1cc2c(cc1OC)CN(c1nc(CN3CCCCC3)nc3sc4c(c13)CCCC4)CC2,109,i,0.9,-10,-0.1,27,135
Cc1nc(SCC(=O)Nc2c(C)n(C)n(-c3ccccc3)c2=O)n[nH]1,97,i,0.87,0,-1.6,50,106
CCOc1ccc(-c2cc(CCCC(=O)NCCc3ccc(OC)c(OC)c3OC)no2)cc1,99,i,0.91,-2,-0.6,-73,46
O=C(Nc1cnc2ccccc2c1)N1CCCCC1,99,i,0.93,-15,-0.9,.,.
SMILES,RGS16-Gao HTS,HSV replic up,HSV replic up primary fold,PKD1 inh,GALR2 ag,Insulin prom inh,Insulin prom inh cell count
CCCCNC(=O)C1CCN(Cc2ccc(OCc3ccccc3)cc2)CC1,104,i,0.86,-10,-2.1,-42,140
CC(=O)OC1c2ccccc2C(=O)N1Cc1ccccc1 (configuration not stated),97,i,0.9,3,-0.1,.,.
O=c1[nH]cc(C(F)(F)F)cc1NS(=O)(=O)c1ccc([N+](=O)[O-])cc1,102,i,0.99,-1,.,.,.
Cc1ccc(-c2nc(CS(=O)(=O)CC(=O)NC3CCCCC3C)c(C)o2)cc1 (configuration not stated),100,i,1,5,0.0,.,.
Nc1ccc(Sc2nc3ccccc3[nH]2)cc1,108,i,1.1,2,.,10,146
Cc1ccc([N+](=O)[O-])c(C)[n+]1C,94,i,1.1,4,.,-28,61
N#Cc1ccsc1NC(=O)c1ccc(Cl)c([N+](=O)[O-])c1,64,i,0.91,.,.,.,.
Cc1nn(C)cc1/C=N\NC(=O)c1ccc(Cn2cc(Cl)cn2)cc1,108,i,1.1,-11,-2.8,.,.
CSCC[C@H](NC(=O)C1=NN(c2c(F)c(F)cc(F)c2F)C(=O)CC1)c1nc2ccccc2[nH]1,108,i,0.98,.,.,.,.
Fc1ccccc1NC(=S)N/N=C/c1ccccc1Br,110,i,0.77,2,-0.9,-16,197
C=CCn1c(=O)c(C(=O)NCCN(CC)CC)c(O)c2ccccc21,103,i,1,3,-2.4,.,.
CCOC(=O)N1CCC(N(CCOC)C(=S)Nc2cccc(SC)c2)CC1,98,i,0.96,-7,.,-43,86
CCN1CCN(C(=O)CSc2cc(=O)n(CC)c3ccccc23)CC1,102,i,0.89,-6,-1.2,-180,90
CC(=O)OCCCCON1C(=O)c2ccccc2C1=O,73,i,1,-2,0.1,.,.
O=C(O)c1ccccc1NC(=S)NC(NC(=O)c1ccccc1[N+](=O)[O-])C(Cl)(Cl)Cl (configuration not stated),101,i,0.92,-7,-1.0,19,72
O=C(O)C1CCCNC1 (configuration not stated),108,i,0.83,-7,-0.4,48,102
COc1ccc(C(=O)NC(=S)Nc2ccccc2N2CCOCC2)cc1[N+](=O)[O-],104,i,0.71,-1,0.8,0,109
N#Cc1ccc(COC(=O)c2ccc(N3CCCC3)c([N+](=O)[O-])c2)cc1,105,i,1.1,-2,-0.5,.,.
CCOc1ccc(N2CC(C(=O)NCc3ccccc3)CC2=O)cc1 (configuration not stated),103,i,0.99,-2,.,20,100
O=C(CSc1nc(-c2ccccc2)c(-c2ccccc2)o1)Nc1nncs1,99,i,0.85,-8,-1.1,30,44
Cc1cc(C)cc(OCc2ccc(C(=O)NC3CCOC3=O)o2)c1 (configuration not stated),108,i,0.96,1,.,-10,104
Brc1ccccc1-n1nnc(-c2ccnc3ccccc23)n1,98,i,0.79,5,.,.,.
COc1cc(CNCCNC(=O)c2cccs2)cc(OC)c1OC,99,i,1.1,-6,.,.,.
CCCc1[nH]nc2c1C(c1cccc(OC)c1)C(C#N)=C(N)O2 (configuration not stated),115,i,0.87,-3,-0.1,17,94
CC(=O)C(Sc1ccc2nnc(-c3cccnc3)n2n1)C(C)=O,109,i,0.85,-6,.,36,209

# Some of the entries above in another layout:
O=C(CSc1nc(-c2ccccc2)c(-c2ccccc2)o1)Nc1nncs1
  RGS16-Gao HTS: 99; HSV replic up: i; HSV replic up primary fold: 0.85; PKD1 inh: -8; GALR2 ag: -1.1; Insulin prom inh: 30; Insulin prom inh cell count: 44

N#Cc1ccc(COC(=O)c2ccc(N3CCCC3)c([N+](=O)[O-])c2)cc1
  RGS16-Gao HTS: 105; HSV replic up: i; HSV replic up primary fold: 1.1; PKD1 inh: -2; GALR2 ag: -0.5; Insulin prom inh: .; Insulin prom inh cell count: .

# Additional structures:
SMILES,RGS16-Gao HTS,HSV replic up,HSV replic up primary fold,PKD1 inh,GALR2 ag,Insulin prom inh,Insulin prom inh cell count
C=CCNC(=O)C1CC(=O)N(c2ccc(Br)cc2)C1 (configuration not stated),81,i,1,3,0.8,.,.
COc1ccccc1N(CC(=O)NC1CCCCC1)S(=O)(=O)c1cccs1,107,i,0.92,.,.,.,.
CCCCCOC(=O)C1=C(C)Nc2nnnn2C1c1ccc(OC)c(OC)c1OC (configuration not stated),101,i,1,13,1.5,21,97
Cn1c(COc2ccccc2)nnc1SCC(=O)c1cccc([N+](=O)[O-])c1,115,i,0.74,0,0.5,-29,150
Cc1ccc(-n2c([S-])c(C(=O)Nc3ccc(OC(F)F)cc3)[n+]3ccc(C(=O)NCCO)cc23)cc1C,93,i,1.1,0,.,.,.
CC(C)n1nnnc1SCC(=O)Nc1ccc2c(c1)OCO2,105,i,1,-3,-4.0,-31,85
O=c1[nH]c(S)c(/C=C2\C=Nc3ccccc32)s1,100,?,.,.,.,.,.
Cc1cccc(NC(=O)CN2C(=O)N/C(=C/c3ccc(C)s3)C2=O)c1,104,?,.,-7,0.3,-119,137
CC(=O)N1CCC(N2CCN(Cc3ccc(C)cc3)C(CCO)C2)CC1 (configuration not stated),99,i,0.96,-2,.,.,.
Cc1nc2cc(C(=O)NCc3cccnc3)ccc2n1-c1ccc(F)cc1F,102,i,0.84,-2,.,.,.
O=C(c1ccc(S(=O)(=O)N2CCOCC2)cc1)N1CCCc2ccccc21,100,i,0.92,-6,-0.8,24,68
O=C(COC(=O)c1ccc(S(=O)(=O)N2CCCC2)cc1)NCc1ccco1,97,i,1.1,.,.,.,.
CC1(C)OC(=O)N(c2ccccc2)C12C=Cc1cc(Br)ccc1O2 (configuration not stated),98,i,0.94,-3,-2.2,7,171
Cc1cc2nncn2c2ccccc12,97,i,1,-8,-1.8,11,89
Cc1ccnc(NC(=O)CCC2COc3ccccc3O2)c1 (configuration not stated),97,i,0.91,5,-4.2,-38,90
COc1ccccc1C(c1nnnn1CC1CCCO1)N1CCN(c2ccccc2)CC1 (configuration not stated),115,i,1.1,7,.,.,.
CCN(CC)C(=O)Cn1c(=O)n(CCCCCC(=O)Nc2ccccc2)c(=O)c2sccc21,104,i,0.9,-5,0.1,.,.
COc1ccc(/C(CC2(O)C(=O)Nc3ccccc32)=N\O)cc1 (configuration not stated),104,i,0.92,-2,-0.3,.,.
CN(C)c1nc(NCc2ccccc2)nc(N/N=C/c2cccc(Br)c2)n1,103,i,0.91,2,.,-44,133
CC12CN3CC(C)(CN(C1)C3c1ccc(Cl)cc1)C2 (configuration not stated),104,i,1.1,.,.,.,.
COc1ccccc1NC(=O)CSc1nc(N)c(-c2ccccc2)c(=O)[nH]1,102,i,1,-3,.,.,.
CNC(=S)N(CCc1c(C)[nH]c2ccc(Cl)cc12)Cc1cc(OC)c(OC)c(OC)c1,99,.,.,-6,-1.0,-207,32
Cc1cc(C)c2c(N)c(C(=O)c3ccccc3)sc2n1,98,i,0.94,.,.,.,.
O=S(=O)(Nc1ncccn1)c1ccc(NC(=S)Nc2ccccc2Cl)cc1,111,i,0.92,.,.,.,.
Cc1cc2n(n1)SC(Nc1ccccc1)N2 (configuration not stated),83,i,0.78,-2,-1.9,21,110
SMILES,RGS16-Gao HTS,HSV replic up,HSV replic up primary fold,PKD1 inh,GALR2 ag,Insulin prom inh,Insulin prom inh cell count
N#CC1=C(N)SC(N)=C(C#N)C1CCc1ccccc1,101,i,1.1,6,-1.6,-68,123
O=C(O)C1=NOC(CNC(=O)c2ccccc2Cl)C1 (configuration not stated),104,.,.,-2,.,-36,105
CCOC(=O)C1(CCc2ccccc2)CCN(C(=O)c2cccc(C)n2)CC1,97,i,1.1,0,.,.,.
COc1ccc(S(=O)(=O)N2c3cc(C)ccc3OCC2C(C)(C)C)cc1 (configuration not stated),112,i,0.58,-5,0.4,33,94
c1ccc2c(c1)Cn1c-2nc2ccccc21,102,i,0.88,1,0.7,95*,80*
Cc1cc2cc(CCNC(=O)c3ccc(C)c([N+](=O)[O-])c3)c(=O)[nH]c2cc1C,6,i,0.78,-1,-0.2,.,.
COc1ccc(OCc2cc(C(=O)O)c(C)o2)cc1,101,i,1.1,.,.,.,.
CN(Cc1cnccn1)Cc1nc(Cc2ccccc2Cl)no1,99,i,0.97,1,.,.,.
C=C(C)Cn1c(SCC(=O)O)nc2c1c(=O)[nH]c(=O)n2C,94,i,0.99,0,-1.9,.,.
O=C(c1ccc(S(=O)(=O)c2ccccc2Cl)c([N+](=O)[O-])c1)N1CCCCCC1,102,i,0.66,-3,-0.6,11,161
COC(OC)c1ccnc(-c2ccc(OC(=O)c3cccs3)cc2)n1,13*,i,0.89,-3,.,.,.
CC1CCN(CCCNC(=O)c2ccc3c(Cl)c4c(nc3c2)CCCC4)CC1,110,i,0.68,.,.,.,.

# Some of these compounds in order of the PKD1 inh value, descending.
canonical_smiles,RGS16-Gao HTS,HSV replic up primary fold,PKD1 inh,GALR2 ag
CCOC(=O)C1(CCc2ccccc2)CCN(C(=O)c2cccc(C)n2)CC1,97,1.1,0,.
COC(OC)c1ccnc(-c2ccc(OC(=O)c3cccs3)cc2)n1,13*,0.89,-3,.
COc1ccc(S(=O)(=O)N2c3cc(C)ccc3OCC2C(C)(C)C)cc1 (configuration not stated),112,0.58,-5,0.4
